RanGTP-Impb inh: disruptors of Ran-importin-beta complex formation – biochemical, FRET, CFP-Ran, YFP-importin-beta, homogeneous, primary screen; cell-free CFP-Ran/YFP-importin-beta FRET ratio; inhibition, % (concentration not given with the values); 300,000 compounds, 1.1% hits; AID 2216;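 active means most replicates above 15%; inconclusive means exactly half above 15%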;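 further: 0% = DMSO wells and 100% = Ran loaded with GDP instead of GTP; wells of about 40 µL received 100 nL stock; the first replicate is given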
Vif A3G: inhibitors of Vif binding to APOBEC3G peptide, primary screen, biochemical, TR-FRET, GST-Vif 1-94, biotin-A3G peptide, dose response retest (AID 1117319); TR-FRET GST-Vif / biotin-A3G peptide binding; higher % means a stronger effect; test concentration not given here; strong numbers were not always called active; inhibition, %; hits with a dose series show IC50 in µM; 260,000 compounds, 0.57% hits;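 active means above the screen mean plus three standard deviations and confirmed in dose response; inconclusive means results disagree or hit not tested in dose response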;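 further: Vif residues 1-94 fused to GST binding biotinylated APOBEC3G peptide 110-148; 0% = full assay without inhibitor and 100% = GST in place of GST-Vif; retest series ran down from 100 µM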
ALR inh: blocks human ALR sulfhydryl oxidase activity. 290,000 compounds, 3.8% hits. inhibition, % (concentration not given with the values). purified ALR, DTT oxidation, H2O2 HRP-luminol luminescence;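 active means mean and each replicate at 75% or more; inconclusive means only one of the two met; inactive means neither met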;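 further: stock transfer was 7.5 nL into about 7.5 µL; 0% = neutral wells and 100% = wells with inactivated enzyme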
LANA-H2A inh: blocks KSHV LANA binding to histone H2A/H2B. cell-free LANA-H2A/H2B peptide, fluorescence polarization. Q9QR71. 320,000 compounds, 0.6% hits. inhibition, % (test concentration not listed); in the data active means inhibition mostly above about 10%, no sharp cut-off; inactive means mostly below about 6.7%;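 further: stock transfer was 7.5 nL into about 10 µL; 0% = median of vehicle wells and 100% = median of positive control wells; one replicate is shown; the record names a cut of 25% in any replicate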
Target sequence (Q9QR71 whole entry, looked up): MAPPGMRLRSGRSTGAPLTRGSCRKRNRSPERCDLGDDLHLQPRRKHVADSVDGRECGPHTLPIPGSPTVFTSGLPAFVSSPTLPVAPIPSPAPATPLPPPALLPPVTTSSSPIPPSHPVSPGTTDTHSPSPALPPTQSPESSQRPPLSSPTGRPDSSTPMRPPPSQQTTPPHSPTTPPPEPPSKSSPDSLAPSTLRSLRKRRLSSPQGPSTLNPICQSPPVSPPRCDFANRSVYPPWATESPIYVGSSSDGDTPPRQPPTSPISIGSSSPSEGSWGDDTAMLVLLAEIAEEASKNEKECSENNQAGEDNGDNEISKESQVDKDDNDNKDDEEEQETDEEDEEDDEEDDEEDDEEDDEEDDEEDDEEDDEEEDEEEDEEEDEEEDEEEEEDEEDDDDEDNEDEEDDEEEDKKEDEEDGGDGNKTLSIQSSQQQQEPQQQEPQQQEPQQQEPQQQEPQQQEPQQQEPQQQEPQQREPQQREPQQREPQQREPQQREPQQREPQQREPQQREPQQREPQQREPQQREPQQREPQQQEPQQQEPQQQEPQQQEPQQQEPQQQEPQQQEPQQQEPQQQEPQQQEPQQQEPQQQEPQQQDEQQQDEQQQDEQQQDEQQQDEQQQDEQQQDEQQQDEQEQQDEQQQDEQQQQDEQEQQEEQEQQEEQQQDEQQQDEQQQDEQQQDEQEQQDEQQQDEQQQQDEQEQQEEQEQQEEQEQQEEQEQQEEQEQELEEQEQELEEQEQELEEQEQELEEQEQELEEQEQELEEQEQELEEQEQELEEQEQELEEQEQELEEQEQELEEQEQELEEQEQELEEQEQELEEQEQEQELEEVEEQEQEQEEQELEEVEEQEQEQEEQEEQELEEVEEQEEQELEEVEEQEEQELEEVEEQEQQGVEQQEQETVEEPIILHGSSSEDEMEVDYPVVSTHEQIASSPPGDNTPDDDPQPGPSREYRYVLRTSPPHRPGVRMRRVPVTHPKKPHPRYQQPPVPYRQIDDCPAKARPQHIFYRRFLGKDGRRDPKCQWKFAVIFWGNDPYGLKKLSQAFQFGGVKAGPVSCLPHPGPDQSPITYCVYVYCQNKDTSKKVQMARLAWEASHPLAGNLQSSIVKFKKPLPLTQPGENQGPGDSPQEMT
HNF4A DNA FP: change in binding of human HNF4 alpha to DNA; HNF4a-FITC DNA binding, fluorescence polarization, 1 h; activity change, % at 10 µM; 360,000 compounds, 0.3% hits; AID 1224865; in the data active means activity change above about 30%, passing the limit was not always enough;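 further: controls were the assay level and a saturating level of protein; the project sought stronger binding though the title names inhibitors; some compounds called inactive have numbers as strong as hits; positive values seem to mean higher polarization but the record does not say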
B2AR ag: human beta-2 adrenergic receptor agonism by FAP; P07550; Am2.2-beta2AR cells, FAP receptor internalization, flow cytometry; reference of the scale not given here; response, % (test concentration not listed); 340,000 compounds, 0.43% hits;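 active means response above a set limit, near 3 SD of response in nonfluorescent compounds, cut at about 42% in these data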;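 further: stock transfer was 100 nL into about 11 µL; a reference agonist was the positive control; negative values mostly stem from fluorescent compounds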
Calb FLC: affects C. albicans growth with fluconazole | growth inhibition, % (no concentration beside the values) | 300,000 compounds, 0.57% hits | C. albicans CaCi-2 (fluconazole-resistant clinical isolate) + fluconazole, Alamar Blue growth, 48 h | AID 1979;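 active means most replicates above 75%; inconclusive means exactly half above 75%; inactive means most below 75%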;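 further: all wells also contain fluconazole at 8 µg/ml as a sub-toxic cotreatment; 0% = median of DMSO wells and 100% = median of geldanamycin control wells; wells of about 8 µL received 7.5 nL stock; the first replicate is given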
* hit, by the source's call; ? = inconclusive; . = no result given; & = joins results of further samples.

SMILES	RanGTP-Impb inh	Vif A3G	ALR inh	LANA-H2A inh	HNF4A DNA FP	B2AR ag	Calb FLC
COc1cc(C2NC(=O)NC(C)=C2C(=O)OC2CCCCC2)cc(Cl)c1O (centres undefined)	?	.	38	1.1	-0.7	0	-18
Cc1cc(C(=O)COC(=O)CC(NC(N)=O)c2ccc(Cl)cc2)c(C)n1C (centres undefined)	.	.	7	4.7	0.1	-13	.
Cc1ccc(NC(=O)Cc2ccsc2)cc1S(=O)(=O)N1CCOCC1	.	-4%	2	-0.7	-0.8	2	.
COCCn1c(SCC(=O)Nc2cccc(OC)c2)nc2c(oc3ccccc32)c1=O	-1.5	-2%	-3	-3.1	-3.2	-10	23
COc1ccc(C(=O)Nc2nncs2)c(OC)c1	2.2	1%	-6	-1.3	-1.5	3	7
O=C(Nn1cnnc1)c1ccc(Cl)c([N+](=O)[O-])c1	1.3	-7%	.	3.2	-0.3	-5	-1
COc1ccc(C(=O)N2CCN(C)C(=O)[C@@H]2C)cc1OC1CCN(C(C)C)CC1	-0.6	-3%	1	0.0	1.2	-10	-10
O=[N+]([O-])c1ccc(S(=O)(=O)NNC(=S)NCCc2ccccc2)cc1	-4.9	.	1	-3.6	3.6	2	-4
O=[N+]([O-])c1cc(S(=O)(=O)N2CCCCC2)ccc1NCCCN1CCOCC1	2.0	-4%	.	0.3	-1.5	-5	-12
CCOc1ccc(C(=O)CCC(=O)N2CCN(c3ncccn3)CC2)cc1	-6.0	-6%	-31	5.8	19	-6	.
COc1cccc(/C=N/NC(=O)C(C)Cn2cnc3ccccc32)c1 (centres undefined)	-5.8	4%	.	-1.9	-0.7	-6	1
CCOC(=O)NC(=O)/C(C#N)=N\Nc1ccc(Cl)cc1	4.5	4%	.	-4.2	3.0	5	-2
Cc1cccc(NC(=O)CSc2ncnc3sc(C)c(C)c23)n1	9.5	.	-11	-3.2	7.3	3	-22
O=C(COc1ccc(F)cc1)c1ccc2c(c1)CCCC2	2.6	1%	6	3.7	1.8	-4	-22
CCn1c(C)nc2cc(C(=O)NNC(=O)[C@@H](NC(=O)c3cc(OC)cc(OC)c3)C(C)C)ccc21	.	0%	-5	-4.5	2.5	-2	.
CC(C)(C)c1ccc(C(=O)NCc2ccccc2)cc1	2.6	0%	-10	-3.4	-0.6	-42	11
CCOc1cccc(OCCOCCOc2ccccc2C(C)=O)c1	-1.8	.	-87	1.9	0.4	-6	4
CCOC(=O)COc1nc(C)cc(C(F)(F)F)c1C#N	-2.2	.	-3	-0.7	-0.5	-1	5
Cc1ccccc1CN1CCN(CCCc2ccccc2)C(CCO)C1 (centres undefined)	-4.1	.	.	-4.7	-0.9	5	-10
COCCNC(=O)/C(C#N)=C/c1cc(C(C)C)c(OC)cc1C	1.3	13%	-6	8.7	-2.4	8	4
Cc1cccc(OCC(=O)NC(=S)Nc2ccc(S(=O)(=O)NC3CCCCC3)cc2)c1	0.5	14%	3	-1.2	-1.4	-5	-4
CCOc1ccc(N2C(=O)CC(N3CCN(c4ccccc4OC)CC3)C2=O)cc1 (centres undefined)	3.2	.	-4	-5.1	-2.5	-6	0
COC(=O)C1(O)CC(CC(C)C)=NN1C(=O)c1ccccc1 (centres undefined)	8.4	-1%	36	6.1	-0.1	11	0
N/C(=N\OC(=O)COc1ccccc1Cl)c1ccccn1	.	12%	2	0.9	-0.5	-7	.
Cc1cc(Nc2ccc3c(c2)OCCO3)c2cccc(C)c2n1	-4.0	-5%	-1	-3.1	-2.6	11	-12
CCC/C(=N\NC(=O)C1CCCC1)c1ccccc1	4.1	0%	-11	-2.5	-0.9	-9	1
O=C1COc2ccc(C(=O)COC(=O)COc3ccccc3[N+](=O)[O-])cc2N1	0.8	.	-4	2.7	-0.7	6	-2
CCCCn1c(N)c(N(CCC(C)C)C(=O)c2oc3ccc(OCC)cc3c2C)c(=O)[nH]c1=O	-2.6	-2%	-2	-1.0	2.4	6	3
Cn1c(/C=C/c2cccc([N+](=O)[O-])c2)c([N+](=O)[O-])c(=O)n(C)c1=O	-1.4	.	98*	-4.2	-1.8	-3	94*
C=CCc1ccccc1OCC(=O)N/N=C/c1ccc(OC(C)=O)cc1OC(C)=O	-1.9	-8%	34	-2.9	2.3	-11	7
CCC1CN(C(=O)N2CCC(C(=O)NCCc3ccccc3OC)CC2)c2ccccc2O1 (centres undefined)	2.0	.	0	-1.7	8.5	15	12
C[C@H](CO)N1C[C@H](C)[C@@H](CN(C)S(=O)(=O)c2cn(C)cn2)Oc2ccc(NC(=O)NC3CCCCC3)cc2C1=O	.	3%	4	.	1.6	1	.
O=C(O)COc1ccc2oc3c(c2c1)CCCC3	0.6	.	56	2.3	1.1	-6	22
Cc1ccc(NC(=O)CCCCCN2C(=O)c3ccccc3C2=O)nc1	-0.6	.	-11	2.4	-2.1	-17	-15
CC(C)=CCC/C(C)=C/CC/C(C)=C/COc1ccc2ccc(=O)oc2c1	.	.	-1	2.0	-1.1	8	.
CC(C)CCOC(=O)/C(=C/c1ccco1)NC(=O)/C=C/c1ccccc1	-0.2	23%	90*	-12	4.3	0	-15
CCOc1ccc(S(=O)(=O)Nc2nc3cc(OC)ccc3s2)cc1	1.4	6%	1	1.1	-2.3	-7	3
O=C(COC(=O)CNC(=O)c1ccccc1)Nc1nnc(-c2ccccc2)o1	0.1	0%	.	.	-2.4	10	2
CCn1c2ccccc2c2cc(NC(=O)COc3ccccc3)ccc21	-3.0	.	.	6.0	2.4	16	9
COc1ccccc1N1CCN(Cc2cnc3ccc(Cl)cn23)CC1	?	-10%	.	.	3.6	-2	-4
Cc1ccc(S(=O)(=O)NCCC(=O)Nc2cccc(S(=O)(=O)N3CCCC3)c2)cc1C	.	-14%	.	.	-0.5	10	.
O=S(=O)(c1ccccc1)c1nc(-c2cccc(Cl)c2)oc1N1CCOCC1	3.8	-1%	1	14	-1.6	6	13
O=c1[nH]c(NC2CCN(S(=O)(=O)c3ccccc3C(F)(F)F)CC2)nc2c1CCCC2	1.2	.	.	.	-0.5	18	-6
Cc1cccc(NC(=S)NCc2ccc(F)cc2)c1	3.2	-8%	-1	0.6	0.8	-1	2
COc1ccc(Cc2nnc(NC(=O)C3CC(=O)N(c4ccc(OC)cc4)C3)s2)cc1 (centres undefined)	0.7	.	-1	1.4	-0.9	11	13
Cc1noc(C)c1CSc1ncnc2sc3c(c12)CCC3	-0.8	-4%	.	.	.	.	6
Cn1c(NC(=O)CCC2CCCCC2)cc(=O)n(C)c1=O	-4.0	1%	44	2.6	-0.2	-7	2
COC(=O)CCC(=O)NNC(=O)c1ccc(Br)cc1	7.1	2%	7	-2.6	-0.1	2	-6
O=C(C(=O)N1CCCC1)c1c(-c2ccccc2)[nH]c2ccccc12	8.9	-5%	-6	0.0	5.1	1	11
CNC(=O)C1=C(C)NC(=S)NC1c1cccs1 (centres undefined)	3.2	-2%	1	-3.3	-0.2	1	3
COc1ccc(NC(=S)NCCc2ccccc2OC)c(OC)c1	-4.0	7µM*	-8	-3.2	-1.0	1	-25
O=C(c1ccc(S(=O)(=O)N2CCCCC2)cc1)N(c1ccccn1)C1CCCCC1	?	5%	1	-6.5	0.8	-9	-12
Cc1ccc(N2C(=O)c3ccccc3C2C(=O)c2ccc(C)c(C)c2O)cc1 (centres undefined)	3.8	.	-11	1.1	-4.7	6	25
COc1ccc2cc(CCl)c(Cl)nc2c1	1.3	.	98*	-5.5	-3.7	-8	15
Cc1nc([N+](=O)[O-])nn1C12CC3CC(CC(Br)(C3)C1)C2	3.4	0%	-16	11	1.2	-4	15
COc1cc2c(cc1OC)C(C)N(C(=O)c1cc3c(C)cc(C)cc3[nH]1)CC2 (centres undefined)	0.2	-7%	-13	-2.5	3.2	3	17
O=C(NCCS(=O)(=O)c1ccc(Cl)cc1)c1ccc(F)cc1	-1.0	-16%	0	-2.3	-2.1	-4	8
O=[N+]([O-])c1ccc(C=Nc2ccc(Cl)c([N+](=O)[O-])c2)s1	.	6%	.	.	3.0	26	.
Cc1c(NC(=O)c2ccc(CN3CCc4ccccc4C3)cc2)c(=O)n(-c2ccccc2)n1C	-1.5	-1%	-18	4.4	1.8	-3	2
COc1ccc(-c2cn(-c3ccc(Br)cc3)c3[n+]2CCS3)cc1	2.7	12%	-7	0.2	3.3	-2	4

The list continues:
SMILES	RanGTP-Impb inh	Vif A3G	ALR inh	LANA-H2A inh	HNF4A DNA FP	B2AR ag	Calb FLC
COc1ccc(OCC(O)CNC(=O)c2c(-c3ccccc3)noc2C)cc1 (centres undefined)	5.3	-11%	1	2.7	1.4	-3	4
CC(=O)Nc1sc(C)c(C)c1C(=O)OCC(=O)NCc1ccccc1	.	4%	.	.	-0.8	-7	.
COc1cccc(CN(c2ccccc2C(=O)O)S(=O)(=O)c2ccc(C)cc2)c1	.	-7%	.	.	-3.4	-2	.
OC1(c2cccc(C(F)(F)F)c2)CCN(c2ccc(-c3ccccc3)nn2)CC1	.	12%	1	-3.9	-1.1	-1	.
CCOC(=O)c1n[nH]c(=O)c2ccccc12	-0.6	-4%	1	-0.9	3.8	3	-1
Cn1c(-c2cc3ccc(OC(=O)C(C)(C)C)cc3oc2=O)nc2ccccc21	150*	-3%	-5	8.6	-7.5	-4	-25
O=C(CCCCC(=O)OC1CCCCC1)OC1CCCCC1	.	0%	.	.	-0.7	1	.
Cc1cc2oc(=O)cc(COC(=O)c3n[nH]c4ccccc34)c2cc1C	-0.2	-16%	-2	4.2	-2.6	6	-20
CC(=NNC(=O)c1ccncc1)c1ccccc1O	.	-6%	.	.	-3.0	0	.
COc1cccc(-c2nc(CS(=O)CC(=O)NCc3ccc(F)cc3)c(C)o2)c1 (centres undefined)	0.3	4%	99*	-14	3.3	-13	9
COc1cc(/C=C2/C(=N)N3N=C(CC(=O)N4CCOCC4)SC3=NC2=O)ccc1OCc1ccccc1F	1.6	.	1	1.5	6.7	-1	-2
O=C1/C(=C/c2ccccn2)SC(=S)N1N1CCOCC1	3.8	11%	-4	-1.9	3.5	-3	-4
C=CCn1c(COc2ccccc2)nnc1SCC(=O)Nc1ccc2c(c1)OCCO2	-0.2	9%	2	-2.6	-0.7	-4	0
Cc1nc(-c2ccccc2)nc(Cl)c1Cl	1.3	-11%	4	3.8	-2.3	4	-11
O=C(CSc1nnc(CNC(=O)c2cccc(C(F)(F)F)c2)o1)NCc1ccco1	5.3	3%	-11	-6.0	1.4	-2	-1
CCCC(=O)NCCCc1nc2ccccc2n1C(C)C	4.7	8%	10	9.5	-1.5	6	-5
COc1ccccc1N1CCN(C(=O)c2ccc3[nH]c(C)c(C)c3c2)CC1	-1.5	.	9	-3.4	0.3	20	-5
COc1ccc(CCNC(=O)CCNS(=O)(=O)c2cccc(Cl)c2)cc1OC	5.3	9%	0	2.1	0.3	-10	-4
Cc1ccc(C)c(N2CCN(C(=O)CN3C(=S)NC(C)(C)CC3C)CC2)c1 (centres undefined)	-4.0	10%	7	-1.8	0.4	9	2
O=C(O)CCn1cc(/C=N/O)c(-c2cccc([N+](=O)[O-])c2)n1	0.4	?	2	-2.4	4.7	6	-6
CCOc1ccccc1CN1CCN(CC2CC2)CC1CCO (centres undefined)	1.2	2%	2	4.1	-2.3	0	-9
COc1ccc2nc(-c3ccccc3)nc(SC)c2c1	.	-2%	.	.	-2.2	-1	.
CCCNC(=O)c1onc(CSc2ccccc2)c1C(=O)NCCC	3.4	.	3	-5.7	2.5	-13	-3
Cc1cc(C(F)F)n2nc(C(=O)Nc3cc(C)on3)nc2n1	-2.9	3%&0%	-1	-2.2	3.9	-14	6

Screening data deposited in PubChem by several laboratories.
